LANA-nucl inh – inhibitors of KSHV LANA binding to nucleosomes. FITC-LANA1-23 / chicken nucleosome fluorescence polarization; hits give low values. z-score (no concentration beside the values). 51,000 compounds, 0.3% hits. AID 720717;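 active = both repeat wells score below -2 in polarization z-score versus plate sample wells, excluding overly bright wells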;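 note: 100 nL library stock added to about 30 µL; numbers are from one replicate; some results filed as inactive read as strong as hits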
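test system = FITC-LANA peptide and chicken nucleosomes | amount = 240 nM purified chicken nucleosomes (480 nM peptide binding sites), final | reagent = 50 nM FITC-LANA1-23 probe | medium = TEN-BT buffer, pH 7.5 | doses = single compound addition by pin transfer, 100 nL per well | timing = 10–45 min, room temperature | detection = fluorescence polarization | repeats = duplicate plates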
Ab BasE inh – blocks the Acinetobacter baumannii siderophore enzyme BasE; purified BasE, fluorescence polarization binding displacement; inhibition, % (no concentration beside the values); 84,000 compounds, 0.1% hits;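 active = both replicates above 25% with normal brightness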;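 note: 0% = negative plate control signal and 100% = positive plate control signal; stock transfer was 100 nL into about 30 µL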
Active calls of the source: *; nt = no result given; & = joins results of further samples. These rows are one share of the data; rates above refer to the full screens.

SMILES | LANA-nucl inh | Ab BasE inh
CC(C)NC(=O)C(F)(F)F | -1.38 | 1.2
Cc1ccc(CCCC(=O)NC2CCS(=O)(=O)C2)cc1 (configuration not stated) | -0.3 | -0.7
CS(=O)(=O)N(Cc1ccc(Cl)cc1)c1ccc(C(=O)N2CCCCCC2)cc1 | nt | -0.5
O=C(c1noc2c1COc1ccccc1-2)N(Cc1ccccc1)Cc1cccs1 | -0.767 | 1.6
COC(=O)C(C)Nc1cccc(Br)c1 (configuration not stated) | nt | 2.2
O=C(N/N=C/c1ccco1)c1csc2c1CCCC2 | -0.088 | -2.1
Cn1ncc2c(NCc3cccnc3)ncnc21 | -0.553 | -0.2
CSc1nc2ccccc2n1CN(C)Cc1ccc(Cl)s1 | nt | 1.1
COc1cc(/C=N/N2CCCCC2)ccc1OC(=O)c1cccnc1 | nt | -1.5
CCC(=O)N(CC)Cc1cc2ccccc2[nH]c1=O | -0.111 | -0.4
O=C(c1cc(-c2ccc(Cl)cc2)n[nH]1)N1CCCC1 | -1.15 | -0.8
Cc1cc2c(c(=O)[nH]1)C(c1ccncc1)C(C#N)=C(N)O2 (configuration not stated) | -0.88 | -0.1
O=C(O)c1sccc1S(=O)(=O)N1CCN(c2ncc(C(F)(F)F)cc2Cl)CC1 | -0.837 | 2.0
CN=C1S/C(=C\c2ccc(N3CCCC3)cc2)C(=O)N1C | -9.15 | -5.8
CC1CCN(CCNS(=O)(=O)c2csc(C(N)=O)c2)CC1 | nt | -0.2
COC(=O)c1cc(S(=O)(=O)NCc2ccc(S(N)(=O)=O)cc2)oc1C | 0.289 | -3.1
CC1CCN(S(=O)(=O)c2cn(CC(=O)N3CC(C)CC(C)C3)c(=O)c3ccccc23)CC1 (configuration not stated) | 0.444 | 0.6
O=C1c2ccccc2C(=O)N1CN1c2cccc3cccc(c23)S1(=O)=O | nt | 1.0
CC(=O)Nc1cccc(SSc2cccc(NC(C)=O)c2)c1 | -1.41 | -0.8
CN(C(=O)Cn1nc(Cc2cccnc2)c2ccccc2c1=O)c1ccccc1 | -0.205 | 0.1
Cc1oc(C23CC4CC(CC(C4)C2)C3)cc1C(=O)N1CCOCC1 | 0.124 | -1.1
O=C(Nc1ccc(O)cc1)c1ccc2ccccc2c1 | -0.325 | 3.4
Cc1ccc(NC(=O)CSc2c(C)cc(=O)n(N)c2C)cc1C | nt | -1.9
NC(=O)CSc1nnc(NC(=O)Cc2cccs2)s1 | 0.657 | 3.0
COc1ccccc1OCCNC(=O)C1CCCCC1 | -0.0135 | -2.4
COc1ccc(OC)c(-c2csc(=Nc3ccccc3)n2CCCn2ccnc2)c1 | nt | 0.0
Cc1ccc(CN2CCN(C/C=C/c3ccccc3)CC2)cc1 | -0.0405 | -1.1
O=C1CC2CC3CC(C2)CC1C3 | nt | 0.0
O=C(O)C1CCN(S(=O)(=O)c2ccc(-c3nn[nH]n3)cc2)CC1 | -1.03 | 1.2
CN1CCN(CCC=C2c3ccccc3Sc3ccc(S(=O)(=O)N(C)C)cc32)CC1 | 0.847&0.0765 | -5.7
O=S(=O)(CC(O)CS(=O)(=O)c1ccc(Cl)cc1)c1ccccc1 (configuration not stated) | -0.44 | 0.8
OCCNCCSc1nc2ccccc2s1 | nt | 1.6
CSc1nc(O)cc(=O)[nH]1 | -0.023 | -0.6
CCN(C(=O)C1CCCCC1)c1ccccc1C | 0.413 | 2.5
Cc1cccnc1NC(=O)C(C)(C)C | 2.34 | nt
COc1ccc(Nc2nnc(SCC3CCCO3)s2)cc1 (configuration not stated) | nt | 0.3
Cc1ccc(N=C2N=C(N)c3ccccc32)cc1 | -1.03 | 2.0
CC(C)(C)C(=O)COC(=O)c1ccccc1Cl | nt | 0.7
CCOC(=O)n1c(=O)oc2cc(Br)ccc21 | -0.634 | 2.0
CCN(CC)CCCOc1c(OC)cccc1OC | 0.848 | 3.0
CCn1c(Cc2ccccc2)nnc1SCC(=O)c1ccc(S(C)(=O)=O)cc1 | nt | -0.5
O=C(NS(=O)(=O)c1ccc(Cl)cc1)c1ccccc1 | nt | 1.1
CCn1c(CN(C)C2CCCCC2)nc2ccccc21 | -0.247 | -2.0
CCn1cc(Br)c(C(=O)NC(C)c2ccccc2)n1 (configuration not stated) | -1 | -0.2
COc1ccc(O)c(C(=O)c2cnc(/N=C(\N)Nc3cc(Cl)cc(Cl)c3)nc2)c1 | nt | -6.0
O=C(Oc1ccc(Cl)cc1)c1ccc2snnc2c1 | 0.087 | 0.6
CCCC(=O)Nc1ccc(-c2nc3cc4ccccc4cc3[nH]2)cc1 | nt | 1.1
CCOC(=O)c1cnc2ccccn2c1=O | nt | -3.2

Entries above with a thiophene ring, fused or not, in the order listed:
SMILES | LANA-nucl inh | Ab BasE inh
O=C(c1noc2c1COc1ccccc1-2)N(Cc1ccccc1)Cc1cccs1 | -0.767 | 1.6
O=C(N/N=C/c1ccco1)c1csc2c1CCCC2 | -0.088 | -2.1
CSc1nc2ccccc2n1CN(C)Cc1ccc(Cl)s1 | nt | 1.1
O=C(O)c1sccc1S(=O)(=O)N1CCN(c2ncc(C(F)(F)F)cc2Cl)CC1 | -0.837 | 2.0
CC1CCN(CCNS(=O)(=O)c2csc(C(N)=O)c2)CC1 | nt | -0.2
NC(=O)CSc1nnc(NC(=O)Cc2cccs2)s1 | 0.657 | 3.0

A draw from above in order of number of heavy atoms, descending.
SMILES | LANA-nucl inh | Ab BasE inh
CCn1c(Cc2ccccc2)nnc1SCC(=O)c1ccc(S(C)(=O)=O)cc1 | nt | -0.5
O=C(Oc1ccc(Cl)cc1)c1ccc2snnc2c1 | 0.087 | 0.6
Cc1ccc(N=C2N=C(N)c3ccccc32)cc1 | -1.03 | 2.0

Later entries
SMILES | LANA-nucl inh | Ab BasE inh
COc1ccc2[nH]c3c(=O)n(CCCC(=O)NCc4ccco4)c(=S)[nH]c3c2c1 | 0.33 | -1.9
O=C(O)c1cccc(S(=O)(=O)Nc2ccccc2Cl)c1 | -0.142 | -2.7
CCOC(=O)N1CCC(NS(=O)(=O)c2ccc(C)cc2)CC1 | 0.374 | -0.4
Cc1nnc(N2CCN(c3ccccc3)CC2)c2c1nnn2Cc1ccccc1 | -0.367 | 0.2
O=C(c1ccco1)N1CCN(CC(=O)N(C2CCCCC2)C2CCS(=O)(=O)C2)CC1 (configuration not stated) | nt | 2.4
CCC(C)C(=O)N1CCCC(c2nc(-c3cccs3)no2)C1 (configuration not stated) | -0.537 | 2.0
O=C(/C=C/c1ccco1)OCc1cc(=O)n2c(n1)sc1ccccc12 | nt | 1.0
O=C(NCCN1CCN(Cc2ccccc2)CC1)c1cc(=O)[nH]c2ccc(S(=O)(=O)N3CCCC3)cc12 | -1.48 | 3.3
Fc1nc(F)c(F)c(Oc2c(F)c(F)c3c(F)c(F)c(F)c(F)c3c2F)c1F | 0.591 | -0.7
Cc1cc2ccccc2n1CC(=O)N(C)CCc1cn[nH]c1 | -0.845 | 4.5
CCOC(=O)c1cc(C#N)c(=S)[nH]c1-c1ccccc1 | nt | 0.8
COc1cc(C)cc(CN2CCN(S(=O)(=O)/C=C/c3ccccc3)CC2)c1O | nt | 1.1
Cc1cc(C)c(C#N)c(Cl)n1 | 0.478 | -1.1
CCN(Cc1cc2ccccc2[nH]c1=O)C(=O)c1cccnc1 | 0.007 | 0.1
CCN(C(=O)C1CCN(c2nc(-c3ccc(OC)cc3)no2)CC1)c1ccccc1 | 0.625 | -0.2
O=c1cc(-c2ccccc2)nc2scc(-c3ccccc3)n12 | nt | 2.2
CC(=O)Nc1ccc(C(=O)OCc2cccc(F)c2)cc1 | -0.363 | 0.0
C=CCOc1ccc(/C=C2\C(=O)N(c3ccc(S(N)(=O)=O)cc3)N=C2C(F)(F)F)cc1OC | nt | 4.6
CCN1CCCC1CNC(=O)Cn1ncc2c3ccccc3n(Cc3ccccc3C)c2c1=O (configuration not stated) | 0.384 | -7.7
N#CC1=C(N)OC2=C(C(=O)OC2)C1c1c(Cl)cccc1Cl (configuration not stated) | 0.107 | 6.3
CCN(CC)c1ccc(/C=N/N=C(\N)c2nonc2N)cc1 | 1.18 | -0.7
Nc1ccccc1OCCOCCOc1ccccc1N | -0.103 | 2.7
CC(Oc1ccccc1F)C(=O)NCCN1CCCCC1 (configuration not stated) | -0.656 | -0.6
Cc1ccc(C)c(C(=O)NCCc2ccccn2)c1 | nt | -0.7

Sorted by the number under LANA-nucl inh (ascending): four from the list above.
mol,LANA-nucl inh
Nc1ccccc1OCCOCCOc1ccccc1N,-0.103
Cc1cc(C)c(C#N)c(Cl)n1,0.478
CCN(C(=O)C1CCN(c2nc(-c3ccc(OC)cc3)no2)CC1)c1ccccc1,0.625
CCN(CC)c1ccc(/C=N/N=C(\N)c2nonc2N)cc1,1.18

Following part
SMILES | LANA-nucl inh | Ab BasE inh
Cc1oc(-n2cccc2)c(C#N)c1C | -0.0105 | -1.0
O=C(NC1CCCCC1)C(c1cccs1)N(Cc1cccs1)C(=O)c1cccs1 (configuration not stated) | -0.27 | 0.1
CCOC(=O)c1nn(-c2ccc(C)cc2)c(=N)s1 | 0.611 | -1.1
O=C(O)C1CCCN1C(=O)C12CC3CC(CC(C3)C1)C2 (configuration not stated) | -0.499 | 2.9
CC(C)(C)NC(=S)Nc1cccc(C(F)(F)F)c1 | nt | 2.8
O=C1OC2(CCCC2)OC(=O)C1=CNc1ccccc1 | 1.57 | 0.7
COc1cc2oc(=O)cc(C)c2cc1OC | 1.64 | -2.9
COC(=O)[C@@H](N)CSC/C=C(\C)CC/C=C(\C)CCC=C(C)C | -0.548 | -2.3
CS(=O)(=O)c1ccc(NC(=O)CSCc2ccc(F)cc2)cc1 | nt | -4.1
CCCNCC(=O)Nc1ccc2c(c1)OCO2 | nt | -2.2
COC(=O)c1c(NC(=O)COc2ncnc3c2cnn3-c2ccccc2)sc2c1CCC2 | nt | 0.5
COC(=O)C1C(=O)C2=C(CC1C)Nc1ccccc1NC2c1c[nH]c2ccccc12 (configuration not stated) | -0.639 | 0.6
O=C(OCc1cc(=O)oc2cc(O)ccc12)c1cc(S(=O)(=O)N2CCOCC2)ccc1F | nt | -0.8
Cc1cc2cc(OCC(=O)O)ccc2n1C | -1.76 | 0.2
COc1ccc(NCC(=O)N2CCCC2)cc1Cl | nt | -0.5
CC1CN(CC(=O)NC(=O)NC(C)(C)C)CC(C)O1 (configuration not stated) | nt | -0.7
N#Cc1cc(Oc2ccccc2Cl)c(-n2nnc3ccccc32)cc1C#N | -1.04 | -0.2
Cc1nc2sccn2c1-c1nc(-c2ccccc2)cs1 | nt | 2.8
CC(=O)N1CCN(c2nc(N3CCCCC3)nc(N3CCCCC3)n2)CC1 | 0.887 | -0.9
Cc1cc(Oc2ccccc2)nc2ccc(O)cc12 | 0.557 | 0.5
COc1ccc(C2C(C(=O)N3CCN(c4ccccn4)CC3)CCC(=O)N2c2cc(OC)c(OC)c(OC)c2)cc1 (configuration not stated) | -0.365 | -0.2
CCc1nc2ccc(C(=O)N3CCCCCC3)cc2nc1CC | nt | 0.7
O=C(/C=C/c1ccc(Br)s1)Nc1ccc(-n2cnnn2)cc1 | nt | 0.0
CCOC(=O)c1sc(N(Cc2nc(-c3cccc(Cl)c3)oc2C)C(C)=O)c(C#N)c1C | -0.281 | 3.2
C[C@@H]1C(=O)O[C@H]2C[C@@]34[C@H]5C[C@@H](C(C)(C)C)[C@]36[C@@H](OC(=O)[C@@H]6O)O[C@@]4(C(=O)O5)[C@]21O | -0.505 | nt
CC(C)(C)N/N=C/c1ccccc1I | nt | 0.8
Fc1ccc(NC2=NCCCCC2)c(F)c1F | nt | 0.4
CCOC(=O)c1cc(C#N)c(=S)[nH]c1O | nt | -1.2
COC(=O)c1cc(S(N)(=O)=O)c(C)o1 | -0.94 | 1.0
O=c1cc(CSc2ncccn2)c2cc3c(cc2o1)CCC3 | nt | 0.4
COc1cccc(C2C3=C(CC(C)(C)CC3=O)Nc3[nH]c(=O)[nH]c(=O)c32)c1 (configuration not stated) | -0.393 | 0.6
O=C(OC1CCOC1=O)C1CCN(C(=O)Nc2ccccc2)CC1 (configuration not stated) | nt | 2.4
Clc1nc(Nc2ccccc2)sc1/C=N/n1cnnc1 | nt | 10.5
N#Cc1ccccc1NC(=O)Nc1ccccc1 | -1.61 | -0.3
CC(=O)Nc1ccc(C2C3=C(Nc4c2c(=O)[nH]c(=O)n4Cc2ccccc2)c2ccccc2C3=O)cc1 (configuration not stated) | -2.34 | 47.0
CC1CCC/C(=C(/C#N)c2nc(-c3ccccc3O)cs2)C1 (configuration not stated) | -0.211 | 0.2
CCn1c2ccccc2c2cc(NC(=O)COC)ccc21 | 1.15 | 0.0
CCOc1ccc2nc(NCCCNC(=O)c3cc(OC)c(OC)c(OC)c3)c(C#N)cc2c1 | -0.523 | 1.5
C/C(=N\NC(=O)C1CCCCC1)c1cccs1 | 0.197 | -2.8
Cc1noc(C)c1CSc1ccccc1C(=O)N1CCN(c2ccccc2)CC1 | nt | 1.7
COC(=O)C1=C(C)N(Cc2cccnc2)C(=O)C1 | 0.729 | 0.3
CCN1C(=O)/C(=C/c2ccc(Cl)cc2)NC1=S | nt | 16.5
NC(=O)C1CCCN(C(=O)CNC(=O)C23CC4CC(CC(C4)C2)C3)C1 (configuration not stated) | nt | 2.4
CC1=Nc2ccc(Cl)cc2C(c2ccccc2)N1CC(=O)NN (configuration not stated) | -0.529 | -6.8
CN(C)CCNC(=O)C12CC3(C)CC(C)(CC(C)(C3)C1)C2 | nt | -0.6
O=C(NCc1cccnc1)N(c1ccccc1)c1ccccc1 | 0.37 | -0.4
Cc1c(C(=O)/C=C/N(C)C)nnn1-c1ccccc1 | nt | 1.1
CS(=O)(=O)CCC(C(=O)N1CCCC1)N1Cc2ccccc2C1=O (configuration not stated) | 0.919 | -0.6

Compound activity as filed in PubChem BioAssay.
